# Assay outcomes: PubChem, National Center for Advancing Translational Sciences (NCATS)
# Tb PFK inh: inhibitors of T. brucei phosphofructokinase | O15648 | T. brucei PFK, ADP-Glo luminescence | Potency, µM (highest dose often 57.5 µM), for the others: at the top dose activity, negative = inhibition, usual class: inhibitors | actives 0.17% (n = 330,000);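 also: potency is read from the fitted curve at half-maximal effect; 0% = uninhibited 1x PFK enzyme wells and -100% = no-enzyme wells; nearly all actives have a fitted effect of over 60% in size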
# Target sequence (O15648 whole entry, looked up): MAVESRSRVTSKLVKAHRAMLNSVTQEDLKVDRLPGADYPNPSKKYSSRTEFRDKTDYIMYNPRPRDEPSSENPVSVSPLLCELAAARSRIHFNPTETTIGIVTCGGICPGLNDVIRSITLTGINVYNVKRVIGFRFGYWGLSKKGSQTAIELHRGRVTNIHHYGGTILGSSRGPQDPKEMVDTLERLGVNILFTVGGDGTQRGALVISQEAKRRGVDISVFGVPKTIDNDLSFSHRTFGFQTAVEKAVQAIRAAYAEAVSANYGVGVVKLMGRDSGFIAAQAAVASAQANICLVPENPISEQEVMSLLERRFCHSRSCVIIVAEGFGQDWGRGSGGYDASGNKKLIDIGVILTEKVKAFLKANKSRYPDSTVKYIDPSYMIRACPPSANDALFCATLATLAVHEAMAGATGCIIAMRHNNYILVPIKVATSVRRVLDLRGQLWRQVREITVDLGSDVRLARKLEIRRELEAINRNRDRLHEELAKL
#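 Compounds were pin-transferred as a titration series up to 57 uM into substrate buffer (0.5 mM F6P, 0.1 mM ATP, pH 8.0), then 1.25 nM PFK was added and reactions ran 45 min before ADP-Glo detection.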
# FBPA coupling cs: inhibits coupling enzyme system, counter-screen for aldolase hits; coupling enzyme system counterscreen, AmpLite Red fluorescence; AID 2472; activity change, negative = inhibition, % at 58.2 µM, hits read low; actives 0.67% (n = 290,000); in the data active = activity change below about -30%; also: % is scaled to controls: 0 for no effect and ±100 for the full control effect
#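 First, compound is pin-transferred into glyceraldehyde-3-phosphate coupling-enzyme reagent at 57.5 uM final and held 10 min at RT. Next, substrate, coupling system and AmpLite Red are added. After 20 min RT, fluorescence (525/598 nm) is read.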
# B2AR arrestin: agonists driving beta-arrestin recruitment to human beta2-adrenergic receptor; actives 0.02% (n = 330,000); beta-arrestin recruitment to beta2AR, cell-based reporter; AID 492947; Potency, µM (titrated, usually from 46.1 µM), for the others: at the highest dose activation, hits mostly activators; P07550;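 also: potency is read from the fitted curve at half-maximal effect; 0% = DMSO controls and full agonism = EC100 isoproterenol or metaproterenol; nearly all actives have a fitted effect of over 65% in size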
# Menin-MLL TR inh: inhibitors of human menin-MLL interaction, mutant MLL peptide. Potency, µM (titrated, usually from 61.6 µM), for inactives: top-dose FP activity change, negative = inhibition, actives largely listed as inhibitors. Menin + Texas Red MLL mutant peptide, fluorescence polarization. O00255. actives 0.23% (n = 270,000). AID 1768; active = well fitted inhibition curve with a large enough effect in the polarisation, with a control signal flat, not every such curve was filed as active; inconclusive = small, poorly fitted or top-dose-only effect, or effect the other way, or a change in a side signal; inactive = no such curve, though single readings can be large or run the other way; the % refers to the polarisation; also: potency is read from the fitted curve at half-maximal effect; % of control where 0% means no effect; many of its hits are not listed in these tables
# GALK inhibitor: inhibitors of human galactokinase; P51570; Purified GALK, Kinase-Glo residual ATP luminescence; Potency, µM (series often up to 57.5 µM), without a hit: at the top dose activity change, negative = inhibition, actives largely listed as inhibitors; actives 0.007% (n = 270,000); also: potency is read from the fitted curve at half-maximal effect; % is scaled to controls: 0 for no effect and ±100 for the full control effect
#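 Kinase-Glo Plus luminescence measured ATP left after a 1 h room-temperature reaction. The reaction used 5 nM GALK, 100 uM galactose and 35 uM ATP at pH 8.0 (20 mM HEPES, 5 mM MgCl2, 60 mM NaCl, 1 mM DTT, 0.01% BSA).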
# Integrin act MD: activates integrin-mediated alleviation for muscular dystrophy; alpha7betagal myoblasts, beta-gal FDG fluorescence, 48 h; actives 0.064% (n = 350,000); AID 624291; Potency, µM (top dose mostly 38.3 µM), inactives show top-dose activation, most hits filed as activators;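 also: potency is read from the fitted curve at half-maximal effect; 100% = response of the positive control SU9516; nearly all actives have a fitted effect of over 60% in size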
#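 alpha7betagal+/- myoblasts (passage 13, 250/well) treated 48 h at 37C with compounds at 1:260 dilution of DMSO stock. Lysed, then beta-galactosidase activity read as FDG fluorescence (ex 480/em 540) after 30 min, with pre-read for autofluorescence.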
# Chronic BCR inh: inhibitors of chronic active B-cell receptor signaling. ABC-DLBCL IkBa-CBG/CBR reporter, luminescence ratio, 4 h. Potency, µM (highest dose often 46.1 µM), for the others: at the top dose ratio change, negative = lower green/red ratio, usual class: inhibitors. actives 0.05% (n = 340,000); active = well fitted inhibition curve with a large enough effect in the signal ratio, with a control signal flat, not every such curve was filed as active; inconclusive = small, poorly fitted or top-dose-only effect, or effect the other way, or a change in a side signal; the % refers to the signal ratio;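 also: potency is read from the fitted curve at half-maximal effect; plate controls were basal doxycycline-induced cells for no effect and cells given 10 µM MG132 for full effect; MG132 reads +100%, hits lower the ratio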
#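 TMD8 ABC-DLBCL cells carrying doxycycline-inducible green luciferase fused to IkappaBalpha plus unfused red luciferase were exposed to compounds (up to 46 uM) for 4 hrs at 37C. Activity came from the overlap-corrected green/red luminescence ratio.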
# TSG101-PTAP inh: blocks PTAP/TSG101 interaction to inhibit HIV-1 budding. Potency, µM (series often up to 115 µM), without a hit: at the highest dose activity change, negative = inhibition, hits mostly inhibitors. 340,000 tested, under 10 active. AID 493005. Fluorescence polarization, FITC-PTAP peptide / Tsg101 binding; active = well fitted inhibition curve with a large enough effect in the main read-out, with a control signal flat, not every such curve was filed as active; inconclusive = small, poorly fitted or top-dose-only effect, or effect the other way, or a change in a side signal; inactive = no such curve, though single readings can be large or run the other way; also: potency is read from the fitted curve at half-maximal effect; % of control where 0% means no effect
#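 FP read-out: FITC-PTAP peptide, 50 nM final, binding Tsg101 binding domain, 10 uM final; 20 min, r.t.; 10 mM HEPES pH 7.5, 0.15 M NaCl, 0.01% Tween 20, 3 mM EDTA, 0.1 mM TCEP.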
# S-ASM inh: inhibitors of human secretory acid sphingomyelinase | P17405 | placental ASM, HMU-PC fluorogenic substrate, 60 min | Potency, µM (doses to about 57.5 µM), inactives show at the highest dose activity change, negative = inhibition, most hits filed as inhibitors | actives 0.006% (n = 340,000) | AID 504937; also: potency is read from the fitted curve at half-maximal effect
# Target sequence (P17405 47-631 limits assumed): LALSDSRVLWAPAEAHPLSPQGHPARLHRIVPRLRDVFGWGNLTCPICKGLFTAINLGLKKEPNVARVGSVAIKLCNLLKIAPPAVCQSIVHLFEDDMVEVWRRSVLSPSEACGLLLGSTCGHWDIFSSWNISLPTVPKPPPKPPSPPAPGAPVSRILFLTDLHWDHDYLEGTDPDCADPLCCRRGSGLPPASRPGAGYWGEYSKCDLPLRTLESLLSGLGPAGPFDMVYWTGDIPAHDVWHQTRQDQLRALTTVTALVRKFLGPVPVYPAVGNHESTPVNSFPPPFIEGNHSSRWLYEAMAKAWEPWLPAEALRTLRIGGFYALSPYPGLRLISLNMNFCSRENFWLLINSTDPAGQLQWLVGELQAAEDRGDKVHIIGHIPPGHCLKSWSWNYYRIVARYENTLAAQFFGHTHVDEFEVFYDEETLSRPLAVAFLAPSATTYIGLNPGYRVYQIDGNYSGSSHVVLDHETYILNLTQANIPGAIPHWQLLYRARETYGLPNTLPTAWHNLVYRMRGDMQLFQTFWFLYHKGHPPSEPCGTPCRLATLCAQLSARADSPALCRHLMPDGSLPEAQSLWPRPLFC
#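 qHTS format. ASM enzyme prepared from human placenta hydrolyses the fluorogenic substrate HMU-PC0 (9 uM final) over 60 min at 37 °C after a 10 min compound preincubation.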
# Giardia killer: Giardia lamblia killing; activity change, % at 7.66 µM, hits read low; Giardia lamblia trophozoite viability; actives 0.15% (n = 340,000); AID 540267; in the data active = activity change below about -80%; inconclusive = between about -30% and that limit;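 also: parasites exposed to compound for two days anaerobically before the ATP read; % is scaled to controls: 0 for no effect and ±100 for the full control effect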
#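 Giardia lamblia trophozoites (100 cells/well) were incubated with compounds for 48 h at 37 deg C under anaerobic conditions. Viability was read as ATP content by one-step luminescence after 15-30 min at room temperature.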
# * marks the source's active call; other numbers are inactive results; ? = inconclusive; / = no result given; & = joins results of further samples; [ ] = another dose, or the depositor's remark. Unless noted, calls follow the shape of the dose curve; as a rule, active = well fitted curve in the direction sought with a large enough effect; inconclusive = small, poorly fitted or top-dose-only effect, or another doubt; inactive = no such curve, though single readings can be large; an effect the other way counts as inactive or inconclusive. These rows are one share of the data (hit frequency here may not be typical).
SMILES,Tb PFK inh,FBPA coupling cs,B2AR arrestin,Menin-MLL TR inh,GALK inhibitor,Integrin act MD,Chronic BCR inh,TSG101-PTAP inh,S-ASM inh,Giardia killer
CN(CC(=O)Nc1ccc2c(c1)OCO2)S(=O)(=O)c1ccc2c(c1)CCC(=O)N2,1%,-1,-0.8%,/,-2%,4%,-9%,0%,0%,6
Cc1ccc(NC(=O)COc2ccc(C3SCCS3)cc2)cc1,-2%,1,0.1%,-27%,-2%,-36%,0%,-2%,1%,5
COC(=O)c1sccc1NC(=O)c1ccc(OC)c(OC)c1,3%,2,-0.1%,-2%,0%,14%,?,-4%,2%,-1
O=C1c2c(O)cc(O)cc2O[C@@]12c1c(cc(O)c3c1O[C@H](c1ccc(O)cc1)[C@@H](O)C3)O[C@@H]2c1ccc(O)cc1,-5%,0,-0.1%,36%[activator],/,-19%,-3%,-5%,-25%,-15
CCCNC(=O)NCCC12CC3CC(CC(C3)C1)C2,-5%,0,0.1%,?,0%,-7%,7%,-5%,4%,0
O=C(CSc1nnc(-c2ccco2)n1Cc1ccco1)Nc1ccccc1,3%,3,-0.2%,-9%,1%,-15%,0%,-11%,-2%,1
Cc1ccc(Cl)cc1N1CCN(CC(=O)NC2CCCc3ccccc32)CC1 (stereo not drawn),1%,-1,0.0%,-11%,-3%,-40%,-2%,-2%,0%,10
CCOC(=O)COc1nc(C)cc(C(F)(F)F)c1C#N,0%,-2,3.2%,/,7%,?,-13%,-2%,269%[activator],7
Cc1nc(SCC(=O)Nc2nnc(C(C)C)s2)n[nH]1,1%,0,-0.5%,7%,12%,26%,0%,2%,2%,12
O=C(O)Cc1sc(-c2ccccc2)nc1-c1ccccc1,-1%,9,0.3%,/,-4%,34%,8%,-2%,14%,2
CCCCCC(=O)NNC1=NCC(Cc2cccc(Cl)c2)S1 (stereo not drawn),-9%,1,-0.1%,0%,7%,-11%,6%,0%,-2%,13
CC(C)(C)NC(=O)COC(=O)c1nsc(Cl)c1Cl,0%,3,-0.5%,6%,-2%,20%,4%,0%,-1%,-5
CCCOc1ccc(-c2nnc(-c3cccs3)o2)cc1,-4%,0,-0.2%,-2%,-3%,-9%,?,1%,-1%,11
Cc1cccc(OCc2nc3ccccc3n2C)c1,1%,0,0.5%,-14%,-3%,6%,?,-2%,-1%,-16
c1ccc(CSc2ncnc3c2cnn3-c2ccccc2)cc1,-3%,0,0.3%,-1%,2%,-11%,?,2%,7%,6
O=C(CN1C(=O)c2ccccc2C1=O)Nc1cccc(S(=O)(=O)Nc2ccccc2Cl)c1,2%,4,-1.0%,0%,1%,35%,-6%,0%,-6%,-5
CN(C)/C=N/c1nc2nccc(-c3ccccn3)n2n1,-3%,1,-0.4%,-2%,1%,0%,-4%,0%,212%[activator],3
Cc1ccccc1NC(=O)c1cccc(C(F)(F)F)c1,7%,-1,-0.5%,2%,0%,10%,-6%,0%,3%,4
CC1CCCCC12NC(=O)N(CC(=O)Nc1ccc(S(=O)(=O)N3CCOCC3)cc1)C2=O (stereo not drawn),0%,4,0.0%,/,0%,-1%,-14%,1%,1%,7
O=C(Cc1ccccc1)Nc1ccccc1Oc1ccccc1,-21%,3,2.8%,-6%,0%,23%,6%,-3%,-1%,-17
O=C(Nc1ncccc1Cl)c1ccccc1F,4%,-2,-0.6%,-8%,1%,15%,1%,-2%,6%,-3
Cc1cc(C)n(C(C)CNS(=O)(=O)c2ccccc2)n1 (stereo not drawn),0%,3,-0.4%,5%,-2%,10%,0%,0%,-1%,-3
CC(=O)Nc1cccc(NC(C)=O)n1,-3%&3%,1&-3,-0.2%&-0.7%,-3%,0%&-1%,14%,-2%&-1%,-2%,0%,32[activator]
COC(=O)c1c(NC(=O)c2cnccn2)sc2c1CCC2,3%,1,0.0%,0%,-3%,14%,?,0%,-2%,-7
CCCC(=O)Nc1ccc(C(=O)NCc2ccccn2)cc1,1%,3,0.1%,-8%,0%,12%,-1%,0%,1%,-12
Cc1ccccc1NC(=O)c1c(C)[nH]c(=S)c(C#N)c1-c1ccco1,6%,1,0.0%,2%,4%,18%,1%,-6%,6%,10
COc1ccc(Nc2ncccc2C(=O)NCc2ccccc2)cc1,1%,-1,-0.1%,?,-2%,29%,17%,-2%,-14%,14
Cc1ccccc1NC(=O)CSc1ccc(-c2cccnc2)nn1,-2%,2,3.2%,-4%,4%,9%,-4%,0%,-2%,-6
COc1ccc(NC(=O)NC2(C(=O)N3CCCCC3)CCCCC2)cc1,1%,3,-0.8%,?,-2%,3%,-8%,-5%,0%,-16
O=C(CSc1n[nH]c(-c2ccccc2)n1)Nc1ccc(Br)cn1,0%,1,-0.5%,?,-2%,-9%,23%,-1%,-8%,-14
COC(C(=O)N/N=C(\C)c1ccc(O)cc1)c1ccccc1 (stereo not drawn),7%,3,0.5%,-8%,2%,-20%,1%,-8%,-2%,-11
COc1ccc(CCNC(=O)CSCc2ccc([N+](=O)[O-])cc2)cc1OC,-5%,-2,-0.4%,-1%,/,-4%,0%,-5%,-2%,8
COC(=O)c1ccc(C(=O)OC)c(NC(=S)N2CCN(c3ccc(F)cc3)CC2)c1,-3%,0,0.1%,-2%,/,9%,0%,-2%,17%,1
COc1ccc(CNC(=O)CN(c2ccc(OC)c(Cl)c2)S(=O)(=O)c2ccc(C)cc2)cc1,3%,/,-0.7%,/,-9%,14%,5%,-1%,-3%,-11
Cc1cc2n(n1)C(c1cn(-c3ccccc3)nc1C)Nc1c(C)cccc1-2 (stereo not drawn),1%,-3,2.9%,0%,-3%,0%,-9%,-1%,-2%,30
O=C1N=C(N2CCOCC2)S/C1=C\c1cccnc1,1%,-3,0.0%,1%,-1%,-15%,4%,-5%,0%,-7
CC(C)[C@H](NC(=O)c1c(F)cccc1F)C(=O)N1CCN(c2ccc(F)cc2)CC1,4%,2,-1.2%,22%,0%,0%,1%,-5%,2%,-1
Cc1ccc(-c2csc3ncnc(SCC(N)=O)c23)cc1,9%,3,0.1%,-7%,0%,-14%,?,-2%,-10%,9
CC(=O)Nc1ccc2c(COC(=O)[C@H](C)N3C(=O)C4CCCCC4C3=O)cc(=O)oc2c1 (stereo partly drawn),-7%,0,-0.1%,/,0%,5%,-1%,-3%,50%,-12
CCc1cccc(NC(=O)Cn2cc(C=O)c3ccccc32)c1,-4%,3,0.0%,1%,-1%,-39%,?,-1%,0%,?
Cc1ccc(-c2c(C)sc3ncn(CC(=O)N4CCOCC4)c(=O)c23)cc1C,2%,1,0.2%,/,3%,-20%,?,-7%,3%,6
Cc1cccc(C)c1NC(=O)CN(C)CC(=O)Nc1cc(Cl)ccc1C#N,0%,0,0.4%,8%,-2%,2%,-2%,-1%,-2%,25
CN(CCc1ccccn1)C(=O)c1ccc(OC2CCN(CCc3ccccc3)CC2)cc1,1%,6,0.6%,-11%,-9%,-14%,4%,-5%,-1%,-16
CCN(CC)S(=O)(=O)c1ccc(N2CCOCC2)c(NC(=O)c2cccc3ccccc23)c1,0%,3,-0.4%,4%,1%,0%,-11%,1%,1%,-10
CCNC(=S)Nc1ccc2ncoc2c1,0%,4,-0.2%,24%,9%,-9%,-1%,-2%,5%,-27
CCOc1cc(CNCc2cccnc2)ccc1OCC(=O)NC(C)(C)C,5%,-1,-0.4%,-15%,1%,0%,0%,-3%,0%,-2
O=C(N/N=C/c1ccc(OCC(=O)N2CCCCC2)cc1)c1ccccc1O,1%,-3,0.4%,14%,0%,13%,?,-3%,3%,-10
COc1cc(OC)cc(C(=O)N[C@H](C(=O)OCC(=O)N2CCc3ccccc32)C(C)C)c1,0%,1,-0.3%,4%,1%,-6%,-15%,-3%,-3%,-8
CCCCOc1ccc(NC(=O)Nc2nnc(C)s2)cc1,1%,1,0.5%,?,-3%,-7%,?,-6%,2%,1
CCn1cc([N+](=O)[O-])nc1C,1%,-1,-0.7%,-8%,0%,20%,-2%,0%,9%,-1
CC(=O)/C(N=Nc1ccc(C(=O)O)cc1)=C(\C)O,0%,-1,-0.3%,/,-1%,-4%,?,0%,0%,-16
O=C(Nc1ccc(S(=O)(=O)N2CCCC2)cc1)c1ccc(Br)o1,-1%,-1,0.3%,13%,-2%,-6%,?,-2%,-4%,11
O=C(Nc1ccccc1)C1=C[C@H](c2coc3ccccc3c2=O)C[C@H](OCc2ccc(CO)cc2)O1,-4%,-1,-1.0%,5%,1%,-1%,?,-4%,-11%,-4
Cc1cccc(NC(=S)N2CCN(C(=O)C3CCCO3)CC2)c1 (stereo not drawn),-7%,4,-0.5%,-5%,2%,-5%,0%,-3%,2%,-2
